# GIV-Gai inh: inhibitors of GIV peptide binding to Galpha-i3, primary screen, biochemical, fluorescence polarization, FITC-GIV GBA peptide, rat Galphai3 | percent of control (FP), % (no concentration beside the values) | hit rate 0.42% among 210,000 | 90 min; hits give low values; scaled: aluminum fluoride 0%, vehicle 100% | AID 1224905, 2016 | Guanine nucleotide-binding protein G(i) subunit alpha-3 (Rattus norvegicus), P08753;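 active means replicate mean at 85% of control or lower, very high polarization wells dropped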;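 further: wells of about 15 µL received 100 nL stock; the first replicate is given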
# Target sequence (P08753 whole entry, looked up): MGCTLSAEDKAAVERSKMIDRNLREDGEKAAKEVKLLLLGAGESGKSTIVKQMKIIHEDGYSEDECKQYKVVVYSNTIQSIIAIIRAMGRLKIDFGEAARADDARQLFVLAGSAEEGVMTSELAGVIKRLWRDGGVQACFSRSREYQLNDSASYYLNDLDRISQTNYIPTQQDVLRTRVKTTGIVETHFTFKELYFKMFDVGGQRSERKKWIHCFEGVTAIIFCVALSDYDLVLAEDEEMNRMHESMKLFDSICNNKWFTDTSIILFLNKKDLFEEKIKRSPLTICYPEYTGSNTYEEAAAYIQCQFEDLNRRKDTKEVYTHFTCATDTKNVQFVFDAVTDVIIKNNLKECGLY
# Sa growth inh: S. aureus growth inhibition at 42 and 30 °C, primary screen, LtaS inhibitor project, RN4220, two temperatures | hit rate 0.53% among 170,000 | OD600, 20 h, 42 °C; hits give low values | AID 720641, 2013 | relative growth, % (concentration not given with the values);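 active means growth at 42 °C up to 50% and 20 or more points under that at 30 °C, or under 10% at both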;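 further: 300 nL library stock went into each well; scaled to the means of positive and negative controls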
# HCMV NEC inh: inhibitors of HCMV UL50-UL53 interaction, biochemical, HTRF; hit rate 0.15% among 190,000; inhibition, % (concentration not given with the values); normalized percent inhibition;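 active means both replicates at 50% or more, plus weaker picks with an unusually low signal ratio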;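 further: stock transfer was 100 nL into about 20 µL; 0% = negative control wells and 100% = wells with untagged competitor protein; inactives centre near -12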
# Sa growth inh second temp: further read-out of Sa growth inh, marked with its call; relative growth, %; measured here: growth at 30 °C;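 optical density after 20 h as mean of two plates; 100% = untreated growth and lower means inhibition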
# * marks the source's active call; other numbers are inactive results; . = no result given; & = joins results of further samples. Rows are unselected; 0.83% or so of the library scored in one or more.
SMILES	GIV-Gai inh	Sa growth inh	Sa growth inh second temp	HCMV NEC inh
CC1=C(C(=O)OCCOc2ccccc2)C(c2cccc([N+](=O)[O-])c2)NC(=O)N1C (stereo not given)	107	.	.	3
O=S(=O)(Nc1cccc2ccccc12)c1ccccc1	98	95	94	-11
COC(=O)CSc1nc(C)cc(N2CCOCC2)n1	103	83	86	-23
Cn1nc(C(=O)NCc2ccccc2)c2c1CCN(C(=O)c1c(F)cccc1F)C2	100	.	.	-30
O=C(CC1=NS(=O)(=O)c2ccccc2N1)NCc1ccc(Cl)cc1	109	.	.	-2
COc1ccc(Nc2cc(C)nc3ccc(OC)cc23)cc1	215	88	65	-64
COc1ccc(OC)c(C2CC(c3ccc(OC)c(OC)c3)=NN2S(=O)(=O)c2ccccc2)c1 (stereo not given)	99	.	.	-18
Cc1sc2nc(CN3CCOCC3)nc(NC(C)C)c2c1C	.	113	93	-18
CCOc1ccc(NC(=O)NC2CCN(c3cc(C)nc4ncnn34)CC2)cc1	106	.	.	-4
CCN(CC)C(=O)CSc1cc(=O)n(CC)c2ccccc12	103	80	83	.
NS(=O)(=O)c1ccc(CNC(=O)c2ccccn2)cc1	.	102	102	5
CCCC(C)C(=O)Nc1nnc(C(F)(F)F)s1 (stereo not given)	104	68	53	24
O=S(=O)(c1ccc(-c2noc(COc3ccc(F)cc3)n2)cc1)N1CCCC1	109	.	.	-9
CCOc1ccc2nc(SCC(=O)Nc3ccc(NC(C)=O)cc3)sc2c1	112	.	.	0
CCn1c(=O)cc(OCC(=O)Nc2cc(OC)c(OC)c(OC)c2)c2ccccc21	105	118	78	-18

# Some of these compounds in order of SMILES length, high to low:
SMILES	GIV-Gai inh	Sa growth inh	Sa growth inh second temp	HCMV NEC inh
COc1ccc(OC)c(C2CC(c3ccc(OC)c(OC)c3)=NN2S(=O)(=O)c2ccccc2)c1 (stereo not given)	99	.	.	-18
CC1=C(C(=O)OCCOc2ccccc2)C(c2cccc([N+](=O)[O-])c2)NC(=O)N1C (stereo not given)	107	.	.	3
Cn1nc(C(=O)NCc2ccccc2)c2c1CCN(C(=O)c1c(F)cccc1F)C2	100	.	.	-30
O=S(=O)(c1ccc(-c2noc(COc3ccc(F)cc3)n2)cc1)N1CCCC1	109	.	.	-9
CCOc1ccc2nc(SCC(=O)Nc3ccc(NC(C)=O)cc3)sc2c1	112	.	.	0
NS(=O)(=O)c1ccc(CNC(=O)c2ccccn2)cc1	.	102	102	5

# The list continues.
SMILES	GIV-Gai inh	Sa growth inh	Sa growth inh second temp	HCMV NEC inh
Cc1nc(-n2nc(C)c(Cc3ccccc3)c2C)sc1C(=O)NCCO	96	.	.	-11
CN(C)S(=O)(=O)c1cccc(-c2nnc3n2N=C(c2ccccc2)C(CC(=O)O)S3)c1 (stereo not given)	.	97	62	-25
Cc1cccc(NC(=O)CSc2nc3ccc(NC(=O)COc4ccccc4F)cc3s2)c1	103	93	74	7
COC(=O)c1c(SC)nc2ccccc2c1OCc1ccc(C)cc1	99	76	85	.
COC(=O)c1ccc(Oc2cccc(C(F)(F)F)c2)nc1	104	95	102	5
O=C(Nc1ccc(-c2csnn2)cc1)c1ccccc1C(F)(F)F	97	84	98	-3
CCN(CC)/C(C)=N/S(=O)(=O)c1ccc(Cl)cc1	107	105	100	-2
CC1(C)CC(Nc2ncnc3scc(-c4ccccc4)c23)CC(C)(C)N1	105	.	.	-20
CCC(=O)Nc1nonc1-c1nc2ccccc2n1CCC(C)C	108	97	77	-21
C=CCNc1ncnc2c1ncn2C1OC(CO)C(O)C1O (stereo not given)	103	.	.	-7
Cc1ccc(NC(=O)CN2Cc3ccccc3C2=O)c(C)c1	103	102	97	.
OC(Cn1ccnc1)c1ccccc1 (stereo not given)	107	93	90	4
Cc1cccc(N(C)c2ccc3cc(S(=O)(=O)N4CCCC4)ccc3n2)c1	104	92	86	.
Cc1ccc(N(C)C(=O)N2CCN(C(=O)N(C)c3ccc(C)cc3)CC2)cc1	107	96	98	4
CCc1ccc(NC(=O)CN(c2cc(C)cc(C)c2)S(=O)(=O)c2c(C)[nH]c(=O)[nH]c2=O)cc1	105	105	88	-28
CCC(NC)c1ccco1 (stereo not given)	102	98	79	-23
O=C(NCC(c1ccc(Cl)cc1)N1CCOCC1)c1cc(-c2ccc(Br)cc2)on1 (stereo not given)	100	.	.	-3
N#C/C(C(=O)c1ccccc1)=C1/Nc2ccccc2C1=O	100	82	88	-17
CSc1ccc(/C=C/c2nc3ccccc3n2S(=O)(=O)c2ccc(Br)cc2)cc1	98	82	42	-60
Cc1cccc(C2CCCCC2)c1O	.	88	96	-14
Cc1ccc(NC(=O)/C(C#N)=C/c2cn(CC(=O)NCc3ccco3)c3ccccc23)cc1Cl	107	99	95	-19
COc1ccccc1NC(=O)c1cn(-c2ccccc2)nc1-c1cccnc1	.	105	96	12
COc1ccccc1N1CCN(c2ccc(=O)n(CC(=O)NCc3ccc(OC(C)C)cc3)n2)CC1	108	92	93	.
Cn1c(=O)c2sccc2n2c(CCCC(=O)NCc3ccc(F)cc3)nnc12	96	93	81	-31
CCCCN(C)C(=O)c1oc(=O)c2ccccc2c1-c1ccc(C)cc1	103	87	82	.
COc1ccc(-c2onc3ccc(Br)cc23)cc1	104	91	82	-4
O=C(Cn1nc2c(N3CCOCC3)nc3ccccc3n2c1=O)NCc1ccc(Cl)cc1	109	.	.	7
CCN1CCN(c2ncc3c(n2)CCN(Cc2ccc(C)s2)C3)CC1	106	91	94	.
CCOC(=O)c1c(C)oc2c1c(C=NC(C)c1ccccc1)c(O)c1ccccc12 (stereo not given)	103	89	82	.
Cc1cccn2c(=O)cc(CSc3nnc(NC(=O)COc4ccc(F)cc4)s3)nc12	94	87	63	.
Nc1c(S(=O)Cc2ccccc2)sc2nc(-c3cccs3)cc(-c3ccccc3)c12 (stereo not given)	139	77	68	.
O=C(NCCCN1CCC(Cc2ccccc2)CC1)c1ccc(N2CCCC2=O)cc1	99	.	.	-6
COC(=O)Cc1c(C)c2ccc(OCC(N)=O)c(C)c2oc1=O	112	103	93	0
CCn1cc(S(=O)(=O)c2cccc(Cl)c2)c(=O)c2cc(F)c(N3CCC(C)CC3)cc21	105	94	93	.
CC/C(=C(/CC)c1ccc(O)cc1)c1ccc(O)cc1	103	79&86	76&80	-20&-6&-13&-13&-28
Nc1ccc2c(c1)C(=O)NC2=O	99	85	87	-83
O=C1CC(c2nc3ccccc3[nH]2)CN1c1ccccc1Cl (stereo not given)	105	109	79	-6
O=P(O)(C1Cc2ccccc2C1)C(O)c1ccco1 (stereo not given)	96	108	90	.
CC1(C)CC(=O)C2=C(C1)OC1=C(C(=O)CC(C)(C)C1)C2c1cccnc1	.	94	89	-6
COc1ccc(-c2cc(C)no2)cc1S(=O)(=O)Nc1ccc(CN2CCCCC2)cc1	103	100	83	1
CCc1ccc(NC(=O)CC2C(=O)N(c3ccc(Cl)cc3)C(=O)N2Cc2cccs2)cc1 (stereo not given)	104	109	84	.
CCCN1CCN(c2cc3c(cc2F)c(=O)c(S(=O)(=O)c2ccc(Cl)cc2)cn3C)CC1	109	100	95	.
O=c1c2c3c(sc2nc2n1CCC2)CCCCC3	101	95	92	10
CN(Cc1ccccc1)C(=O)c1cc2ncc(Br)cn2n1	111	99	98	-9
Cc1cc(Br)ccc1NC(=O)CCS(=O)(=O)c1cccc2nonc12	102	119	90	-21
Cc1ccc(Cn2cc(S(=O)(=O)c3ccc(C)cc3)c(=O)c3cc(F)c(N4CCCC4)cc32)cc1	108	115	96	.
COc1ccc(C(=O)Sc2ccccc2)cc1	101	108	75	-5
Cc1c(C(=O)OC2CCCCC2)[nH]c2c1C(=O)CC(c1ccc(C(C)(C)C)cc1)C2 (stereo not given)	104	108	88	-7
CCN1CCCC1CNC(=O)C1CCN(C2=NS(=O)(=O)C(c3ccc(C)c(C)c3)=C2C)CC1 (stereo not given)	97	.	.	-71
Cc1ccc(C(=O)Nc2cccc(C(F)(F)F)c2)cc1	102	90	80	.
O=C(Nc1cccc([N+](=O)[O-])c1)C1COc2ccccc2O1 (stereo not given)	104	.	.	-34
O=C(CC1CCN(S(=O)(=O)c2ccccc2)CC1)NCc1ccc2c(c1)OCO2	98	.	.	-16
CN(CC(=O)Nc1ccc2c(c1)OC1(CCCCC1)O2)C1CCCCC1	.	99	94	10
COC(=O)COc1ccccc1C1NC(=O)NC(C)=C1C(=O)Nc1ccccc1OC (stereo not given)	108	119	97	-4
CCOC(=O)Cn1c(=O)oc2cc(S(=O)(=O)N3CCN(c4ccccc4F)CC3)ccc21	99	107	89	-14
CC(=O)NC1=NN(C(C)=O)C(/C=C/c2ccccc2)S1 (stereo not given)	105	122	94	.
Cc1nc(C)c(-c2ccn(C(=O)NC(C)C)n2)s1	108	85	100	-14
CCCCOc1cccc(C(=O)N(Cc2ccc(Cl)cc2)C2CCS(=O)(=O)C2)c1 (stereo not given)	102	101	90	3
CN(Cc1cccs1)C(=O)c1cc(S(=O)(=O)N2CCOCC2)ccc1F	.	87	85	-14
Cc1ccc2nc3c(cc(C(=O)NCCN4CCOCC4)c(=N)n3C(C)C)c(=O)n2c1	110	93	82	-103

# Next section
SMILES	GIV-Gai inh	Sa growth inh	Sa growth inh second temp	HCMV NEC inh
CCOc1ccc(NC(=O)CN2C(=O)C(c3ccccc3)=NC23CCCCCC3)cc1	109	109	88	-2
CCOC(=O)c1noc2ncn(CC(=O)Nc3ccc(F)c(Cl)c3)c(=O)c12	105	.	.	-24
O=C(Nc1ccccc1C(=O)NCCCN1CCOCC1)c1ccccc1	99	95	82	-22
CCc1cc(=O)oc2cc(OC(=O)c3ccco3)c(Cl)cc12	88	95	95	-13
CCOC(=O)c1cc(OC(=O)c2ccccc2F)n(-c2ccccc2)n1	103	82	84	-26
Nc1c(Cl)ncnc1N1CCCCC1	101	106	77	-16
Cc1[nH]c(=S)c(C#N)c(C)c1CC(=O)c1ccc(Br)cc1	.	123	80	-10
O=C(O)CCCNC1=NCCC1	105	101	94	-4
Cc1cc(C)c(NC(=O)C2Nc3cc(C)ccc3S(=O)(=O)N2)c(C)c1 (stereo not given)	107	.	.	-14
Cc1cccc(NC(=O)CSc2nc3n[nH]c(C)c3c(=N)n2-c2cccc(C)c2)c1	.	102	84	6
O=C(Nc1ccc2oc(-c3ccncc3)nc2c1)c1ccco1	.	120	43	-20
Cc1ccccc1C(=O)Nc1nc(-c2ccc(Br)cc2)ns1	99	103	89	-13
COc1ccc(OCC(O)CNC(C)(C)C)cc1 (stereo not given)	98	112	92	-25
NC(=O)CSc1nnc(Cn2cnc3ccccc32)o1	102	93	108	-22
Cc1c(C(=O)NCc2ccccc2)oc2ccc3c(c12)C=CC1(CCCC1)O3	98	110	92	.
CC(Sc1nc(-c2cccnc2)ccc1C#N)C(=O)O (stereo not given)	97	84	94	.
CC1=CC(C)C2C(=O)N(c3ccccc3)NC(=O)C2C1 (stereo not given)	105	104	114	11
CCOC(=O)c1c(C)[nH]c(C)c1S(=O)(=O)N1CCC(C(=O)Nc2ccc(OC)c(OC)c2)CC1	103	128	90	.
CC1=C(C(=O)Nc2ccc(Cl)cc2)C(c2cccs2)n2nc(SCc3cccc(C)c3)nc2N1 (stereo not given)	106	120	89	-8
O=C(Nc1nccs1)c1cc2ccccc2oc1=Nc1ccc(Cl)cc1	102	109	94	.
COC(=O)C1=C2NC(=O)c3ccccc3N2C(=O)C1	.	77	98	-6
CCCC(=O)Nc1ccc2c(c1)nc(CN1CCOCC1)n2C(C)C	101	.	.	-5
CCn1c(C)c(C(C)(C)C)s/c1=N\S(=O)(=O)c1ccc(Cl)cc1	.	91	88	-15
Cc1cccc(NC(=O)Cn2nnc(C(=O)Nc3ccc(F)c(Cl)c3)c2N)c1	101	83	89	.
Cc1noc(C)c1COc1ccc(C(=O)OCCN2C(=O)c3ccccc3C2=O)cc1	.	100	94	-6
S=C(NCCN1CCOCC1)N1CCc2ccccc21	100	124	102	4
CCS(=O)(=O)CS(=O)(=O)CC	104	101	94	-7
O=C(c1ccc(CSc2nc3ccncc3n2Cc2ccc(F)cc2)cc1)N1CCCCCC1	101	114	71	-15
C=CCN1C(=O)S/C(=C/c2ccc(Sc3nc4ccccc4[nH]3)o2)C1=O	126	100	92	-99
Cc1nn(C)c2c1c(C(F)(F)F)cc(=O)n2CC(=O)NCCC(C)C	97	83	87	.

# Five compounds already listed, ordered by the number in GIV-Gai inh, largest number first.
SMILES | GIV-Gai inh | Sa growth inh second temp
CCN(CC)/C(C)=N/S(=O)(=O)c1ccc(Cl)cc1 | 107 | 100
COC(=O)CSc1nc(C)cc(N2CCOCC2)n1 | 103 | 86
NC(=O)CSc1nnc(Cn2cnc3ccccc32)o1 | 102 | 108
CCCC(=O)Nc1ccc2c(c1)nc(CN1CCOCC1)n2C(C)C | 101 | .
CSc1ccc(/C=C/c2nc3ccccc3n2S(=O)(=O)c2ccc(Br)cc2)cc1 | 98 | 42

# Screening results (PubChem BioAssay)
